Rce1 inh – yeast Ras-converting enzyme inhibition. hit rate 0.27% among 290,000. yeast membranes, quenched prenylated peptide cleavage fluorescence. calls only. Q03530;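 active means fall in fluorescence gain of 50% or more versus controls, with final raw signal at or below 3038400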;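 further: plate controls were neutral control wells for no effect and wells lacking membranes for full effect; tested at 10 µM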
Target sequence (Q03530 whole entry, looked up): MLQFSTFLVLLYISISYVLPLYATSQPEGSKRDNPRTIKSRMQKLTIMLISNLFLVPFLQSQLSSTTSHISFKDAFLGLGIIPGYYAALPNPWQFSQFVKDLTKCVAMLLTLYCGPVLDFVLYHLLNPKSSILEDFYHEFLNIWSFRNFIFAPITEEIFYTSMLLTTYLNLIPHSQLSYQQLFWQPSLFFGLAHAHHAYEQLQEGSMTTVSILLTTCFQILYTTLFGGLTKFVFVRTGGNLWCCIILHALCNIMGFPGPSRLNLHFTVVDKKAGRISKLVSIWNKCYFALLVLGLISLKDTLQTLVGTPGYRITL
eIF4H inh – inhibitors of RNA binding by human eIF4H; Q15056; eIF4H fluorescence polarization binding assay; inhibition, % at 35 µM; hit rate 0.94% among 290,000;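 active means 50% or more with normal probe brightness, or confirmed in later tests; about a fifth of its hits are not listed in these tables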;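 further: calls also rest on retests at 20 µM and on dose response follow-up; 0% = protein and probe with vehicle and 100% = probe without protein; strong numbers were not always called active; many hits fall short of the cut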
CSC inhib – cancer stem cell inhibition; cancer stem cell-like cells viability, luminescence; inhibition, % at 7.5 µM; hit rate 1.1% among 300,000;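 active means mean at 75% or more and at least half the replicates too; tested in HMLE shEcad cells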;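 further: 0% = median of negative and 100% = median of positive control wells; the first replicate is given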
Env fusion inh – blocks HIV Env-driven cell-cell fusion; HeLa-JRFL Env/CEM21 cell fusion, luciferase; inhibition, % at 12.3 µM; hit rate 1.1% among 360,000;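 active means mean replicate inhibition score of at least 50 and every replicate individually at or above 50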;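 further: 0% = plate neutral controls and 100% = maraviroc near 300 nM; one replicate is shown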
MT1-MMP act inh – blocks activation of human MT1-MMP. P50281. HT1080 RFP-PRO-GFP cells, GFP/RFP ratio fluorescence, overnight; percent of plate control window, DMSO zero. GFP/RFP ratio change, % at 20 µM. hit rate 0.061% among 360,000. AID 651647;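 active means GFP/RFP ratio change of at least 30% with cell ATP level not reduced by more than half and red fluorescence within 50% of control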; further: strong numbers were not always called active
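Assay system: HT1080 RFP-PRO-GFP cells. Benchmarks: DMSO vehicle wells and RFP-L50D-GFP reporter cell wells. Times: overnight cell settling, then overnight compound exposure, 37 °C, 5% CO2. Compound: 20 µM single dose, 1% DMSO. Read-out basis: GFP/RFP fluorescence ratio.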
PABP polyA inh – PABP-poly(A) binding inhibition; PABP-poly(A) RNA binding, fluorescence polarization; hit rate 1% among 290,000; inhibition, % at 35 µM;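 active means 50% or more with normal probe brightness, or confirmed in later tests; about a fifth of its hits are not listed in these tables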;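 further: calls also rest on retests at 20 µM and on dose response follow-up; controls were probe without protein and protein plus probe with vehicle; some compounds called inactive have numbers as strong as hits; many hits fall short of the cut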
Target sequence (P11940 whole entry, looked up): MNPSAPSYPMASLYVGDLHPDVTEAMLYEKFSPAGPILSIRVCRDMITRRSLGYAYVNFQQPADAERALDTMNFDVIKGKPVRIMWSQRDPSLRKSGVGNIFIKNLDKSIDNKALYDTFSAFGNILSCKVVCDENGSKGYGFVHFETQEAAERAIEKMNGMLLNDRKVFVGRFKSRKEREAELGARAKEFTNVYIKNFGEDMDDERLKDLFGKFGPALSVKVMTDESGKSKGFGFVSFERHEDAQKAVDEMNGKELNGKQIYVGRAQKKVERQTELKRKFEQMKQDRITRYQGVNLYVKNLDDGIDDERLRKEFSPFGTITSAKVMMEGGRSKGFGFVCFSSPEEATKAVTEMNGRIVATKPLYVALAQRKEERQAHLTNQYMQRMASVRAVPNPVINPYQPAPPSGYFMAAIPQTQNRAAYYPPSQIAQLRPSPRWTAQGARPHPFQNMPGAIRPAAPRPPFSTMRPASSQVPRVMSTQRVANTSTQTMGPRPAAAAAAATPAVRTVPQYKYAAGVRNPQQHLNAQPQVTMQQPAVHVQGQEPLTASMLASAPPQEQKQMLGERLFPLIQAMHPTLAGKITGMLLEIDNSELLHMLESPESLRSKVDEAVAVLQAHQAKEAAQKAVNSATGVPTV
Yeast UUG start – alters start codon recognition fidelity in yeast | S. cerevisiae UUG-firefly luciferase reporter, luminescence/redox ratio | activity score, % at 18.7 µM | hit rate 0.13% among 350,000;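 active means replicate mean at a twofold rise or more, about +100% in these data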;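 further: firefly luciferase made from a UUG start codon reports start codon fidelity; reporter light over untreated wells divided by growth signal over untreated wells; some hits fall short of that in this replicate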
eIF4H inh retest – second read-out of eIF4H inh, no call of its own (marks repeat the call); inhibition, %; compound at 20 µM; confirmation average;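 mean of two retest wells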
PABP polyA inh retest – recorded beside PABP polyA inh, whose call it bears; inhibition, %; compound at 20 µM; confirmation repeats;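 mean of two retest wells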
MT1-MMP act inh RFP – second read-out of MT1-MMP act inh, no call of its own (marks repeat the call); RFP signal change, %; measured here: RFP expression control read;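 0 = vehicle wells; hits needed this value within 50% of zero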
Numbers without * were called inactive; i = inactive; . = no result given; + = active, no number.

SMILES	Rce1 inh	eIF4H inh	CSC inhib	Env fusion inh	MT1-MMP act inh	MT1-MMP act inh RFP	PABP polyA inh	Yeast UUG start	others
Cc1ccc2nc(SCc3cn4c(C)cc(C)nc4n3)[nH]c2c1	i	-5	-9	.	.	.	2	.
CC(C)(C)c1ccc(Oc2ccc(NC(=O)c3cccs3)cn2)cc1	i	0	84*	31	-3	-30	5	-22
COc1ccc(NC(=O)C2CCN(c3cc(-c4ccccc4)nc4ncnn34)CC2)cc1OC	.	0	19	60*	-2	-10	3	.
COc1ccc(NC(=O)COC(=O)[C@@H]2CCCN2S(=O)(=O)c2ccccc2F)c(OC)c1	i	-8	-6	7	-1	0	4	4
O=C(CSc1ccc(-c2ccco2)nn1)NCc1ccc2c(c1)OCO2	i	99	0	12	-3	4	2	.	eIF4H inh retest=4;PABP polyA inh retest=2
COc1ccc(C(=O)NCc2nnc(SCC(=O)c3ccccc3)n2C)cc1	i	8	-9	11	1	2	-4	.
Cc1ccc(S(=O)(=O)N2CCC(=O)N(C(CO)C(C)C)CC2)cc1 (stereo unspecified)	i	-7	-3	-11	-4	3	6	-5
CC(=O)Nc1ccc(-c2ccnc3c2CC(C)(C(=O)Nc2ccccc2)O3)cc1 (stereo unspecified)	.	.	.	-29	0	2	.	-6
O=c1c(-c2ccc3c(c2)OCCO3)coc2cc(O)cc(O)c12	i	-1	35	-227	8	4	1	-50
CC1Oc2ccccc2N(Cc2ccc(F)cc2)C1=O (stereo unspecified)	i	-6	-3	2	-2	2	-1	-15
CCN(CC)C(=O)c1c(NC(=O)c2ccccc2)sc(C)c1C	i	-5	0	-19	1	4	-2	0
O=C(NCc1ccco1)C1CCCN(S(=O)(=O)c2ccccc2)C1 (stereo unspecified)	.	3	-7	.	7	6	-3	-7
O=C(CSCc1ccccc1)N1CCN(c2cccc(C(F)(F)F)c2)CC1	i	-6	-5	.	3	-1	-4	1
COc1ccc(NC(=O)/C(C#N)=C\c2cc(C)n(-c3ccc4c(c3)OCO4)c2C)cc1	i	70	48	-194	2	-11	-4	.	eIF4H inh retest=-8;PABP polyA inh retest=-3
COc1cc(C(=O)N/N=C\c2ccccc2)c([N+](=O)[O-])c(OC)c1OC	i	4	4	-51	-1	-3	7	-17
CCC(=O)Nc1nc2nc(C)cc(=O)n2[nH]1	i	-5	-6	.	4	1	5	-10
O=C(c1[nH]c(C(F)(F)F)nc1-c1ccccc1)N1CCN(c2ccc(C(F)(F)F)cn2)CC1	.	.	.	4	0	-6	.	-2
CC(Oc1cc(-c2ccccc2)cc2ccccc12)C(=O)N1CCOCC1 (stereo unspecified)	i	1	3	-62	-10	-13	4	.
CCOC(=O)C1CCN(C(=O)COc2ccc(Br)cc2)CC1	.	5	-9	-26	-1	-1	0	18
Cc1noc(C)c1NC(=O)N(C)C[C@H]1Oc2ccc(NC(=O)Nc3ccc(C(F)(F)F)cc3)cc2C(=O)N([C@H](C)CO)C[C@@H]1C	.	.	-12	19	4	4	.	8
CCCCN(CC)CCNC(=O)c1cc2c(-c3ccc(Cl)cc3)nn(C)c2s1	+	2	112*	2	-6	-5	5	14
N#C/C(=C/c1ccccc1[N+](=O)[O-])c1nc(C2CC2)cs1	i	2	-7	-28	-4	-1	-10	.
CCCCNC(=O)C1(C)CCN1Cc1cc(C)ccc1C (stereo unspecified)	.	.	.	-20	1	6	.	-26
CCOc1ccc(-c2nnc(SCC(=O)Nc3cc(C)on3)o2)cc1	i	8	-10	26	8	6	-1	.
Cc1ccc(-c2noc(CCCC(=O)N3CCOCC3)n2)cc1	i	-2	-6	-5	1	1	1	-13

Carrying on:
SMILES	Rce1 inh	eIF4H inh	CSC inhib	Env fusion inh	MT1-MMP act inh	MT1-MMP act inh RFP	PABP polyA inh	Yeast UUG start	others
Cc1ccc(N2CCN(C(=O)c3ccccc3)CC2)c(C)c1	i	-12	-4	.	9	1	-4	10
CCOc1ccc(C(=S)N2CCOCC2)cc1OCC	i	8	-8	.	1	3	3	-19
COc1ccccc1NC(=O)c1cc2c(CO)cnc(C)c2oc1=Nc1ccccc1	i	2	13	-17	-3	-8	3	-10
CC(C)OC(=O)Nc1ccc2c(c1)N(C(=O)CCN1CCOCC1)c1ccccc1CC2	i	-6	8	31	-10	-5	-4	.
CCCCNc1ccc2oc(-c3ccc(OC)cc3)c(-c3ccc(OC)c(F)c3)c2c1	.	.	.	-4	6	2	.	6
COC(=O)Cc1c(C)c2ccc(OCC(=O)c3ccc(OC)c(OC)c3)cc2oc1=O	i	-6	8	-4	.	.	1	.
COC(=O)c1c(C)nc(C)c(C(=O)OC)c1-c1ccc(OC)cc1	i	-7	-9	0	0	2	5	.
CCOC(=O)CN(C(=O)CSc1nnc2c(n1)[nH]c1ccccc12)c1ccccc1	i	-8	-5	-63	1	-9	-6	-20
Cc1cc(C(=O)OCC(=O)N2CCc3ccccc32)ccc1[N+](=O)[O-]	.	.	.	-6	1	3	.	-20
Cc1ccc(CCN2CC(C(=O)NCCc3ccccc3)CC2=O)cc1 (stereo unspecified)	i	.	-4	-1	-5	1	.	-4
Fc1ccc(COc2ccccc2C(=S)N2CCCC2)cc1	i	-9	-9	.	-1	-2	-4	.
Cn1c(SCC(=O)NC2CCCC2)nnc1-c1ccncc1	i	1	2	10	1	4	-5	-8
Cc1cc(SCC(=O)Nc2ccccc2)n2ncc(-c3ccccc3)c2n1	i	-4	-4	9	-4	-11	-2	.
COc1ccc(C(=O)CCC(C)(C)[N+](=O)[O-])cc1	.	3	-2	5	3	-1	5	.
CC(C)Oc1ccc(Nc2ncnc3ccccc23)cc1	i	-13	-11	-22	0	-8	-10	.
COc1ccccc1NC(=O)c1sc2nc(C)cc(C)c2c1N	i	.	-8	-48	0	3	.	-19
O=c1c2cc(NC(=S)NCCN3CCCCCC3)ccc2nc2n1CCCCC2	.	-4	13	-3	-1	4	1	-16
COC(=O)c1ccccc1NC(=O)CSc1nncn1-c1cccnc1	i	12	-11	19	-4	-1	-4	-25
O=C1NC2(CCOc3ccccc32)C(=O)N1CC(=O)N(Cc1ccccc1)C1CCS(=O)(=O)C1 (stereo unspecified)	i	8	21	-9	3	4	7	1
COc1ccc(OCCN2CCN(C(=O)c3ccc(OC)c(OC)c3)CC2)cc1	i	3	-23	-5	-3	-21	4	-17
O=C(O)CCN(CC(=O)c1ccc(Cl)cc1)S(=O)(=O)c1ccc([N+](=O)[O-])cc1	.	.	1	-24	5	0	.	-14
CCOC(=O)CSc1nc(C)cc(=O)[nH]1	i	-2	-3	13	3	5	-4	-31
Cc1ccc(N2CC(C(=O)OCC(=O)c3ccc[nH]3)CC2=O)cc1 (stereo unspecified)	i	.	-16	-8	4	2	.	-9
COc1ccc(N2CCN(CCNC(=O)Nc3cc(Cl)ccc3Cl)CC2)cc1	i	-9	6	3	-10	-5	-4	-12
COc1ccc(C2CC(c3ccc(Cl)cc3)=NN2c2ccc(S(N)(=O)=O)cc2)cc1 (stereo unspecified)	.	.	.	-24	0	2	.	-8

Continuation.
SMILES	Rce1 inh	eIF4H inh	CSC inhib	Env fusion inh	MT1-MMP act inh	MT1-MMP act inh RFP	PABP polyA inh	Yeast UUG start	others
O=C(CN1CCC(C(=O)c2ccc(Cl)cc2)CC1)NC1CCCC1	i	-6	12	-2	3	-8	4	-19
O=c1c2ccccc2sc2ccc(C#CC3(O)CCCCC3)cc12	i	.	-6	15	-2	-5	.	-48
O=C(O)CSC1=NC(=Nc2ccc(Cl)cc2)C2(CCCCC2)N1c1cccc(C(=O)O)c1	i	5	26	.	-1	5	-7	.
CC(C)c1nnc(NC(=O)CCC(=O)N2CCN(c3ccccc3F)CC2)s1	i	-4	-21	5	1	7	5	-7
FC(F)(F)c1cc(-c2ccco2)nc(N2CCN(Cc3ccccc3)CC2)n1	i	0	-3	-1	-5	-3	12	.
COC(=O)C1CCN(C(=O)COC(=O)CNS(=O)(=O)c2ccc(SC)c([N+](=O)[O-])c2)CC1	.	.	-7	1	-2	-8	.	-4
Cc1nn(CC(=O)N2CCN(c3ccccc3)CC2)c(=O)c2ccccc12	i	2	-7	1	3	2	3	-24
Cc1ccc(CN2CCN(Cc3cccn3-c3ccccn3)CC2CCO)cc1 (stereo unspecified)	i	6	-15	-7	0	2	16	.
CC(C)CN(C(=O)COC(=O)/C=C/c1ccccc1)C1CCS(=O)(=O)C1 (stereo unspecified)	.	.	-18	-6	-1	-2	.	2
Cc1ccccc1-n1ncc2c(SCC(=O)N3c4ccccc4CC3C)ncnc21 (stereo unspecified)	i	-9	45	.	-6	-16	-3	-16
CC1=C(N2CCN(c3ncccn3)CC2)CCC1=O	i	.	-7	9	4	8	.	-7

Sorted by formula weight (lowest first): part of the list above.
SMILES	Rce1 inh	eIF4H inh	CSC inhib	Env fusion inh	MT1-MMP act inh	MT1-MMP act inh RFP	PABP polyA inh	Yeast UUG start	others
CCOC(=O)CSc1nc(C)cc(=O)[nH]1	i	-2	-3	13	3	5	-4	-31
COc1ccc(C(=O)CCC(C)(C)[N+](=O)[O-])cc1	.	3	-2	5	3	-1	5	.
CC1=C(N2CCN(c3ncccn3)CC2)CCC1=O	i	.	-7	9	4	8	.	-7
Cc1ccc(N2CC(C(=O)OCC(=O)c3ccc[nH]3)CC2=O)cc1 (stereo unspecified)	i	.	-16	-8	4	2	.	-9
COc1ccccc1NC(=O)c1sc2nc(C)cc(C)c2c1N	i	.	-8	-48	0	3	.	-19
O=c1c2ccccc2sc2ccc(C#CC3(O)CCCCC3)cc12	i	.	-6	15	-2	-5	.	-48
Cc1nn(CC(=O)N2CCN(c3ccccc3)CC2)c(=O)c2ccccc12	i	2	-7	1	3	2	3	-24
COC(=O)c1ccccc1NC(=O)CSc1nncn1-c1cccnc1	i	12	-11	19	-4	-1	-4	-25
CC(C)CN(C(=O)COC(=O)/C=C/c1ccccc1)C1CCS(=O)(=O)C1 (stereo unspecified)	.	.	-18	-6	-1	-2	.	2
FC(F)(F)c1cc(-c2ccco2)nc(N2CCN(Cc3ccccc3)CC2)n1	i	0	-3	-1	-5	-3	12	.
Cc1ccc(CN2CCN(Cc3cccn3-c3ccccn3)CC2CCO)cc1 (stereo unspecified)	i	6	-15	-7	0	2	16	.
COc1ccc(OCCN2CCN(C(=O)c3ccc(OC)c(OC)c3)CC2)cc1	i	3	-23	-5	-3	-21	4	-17
O=c1c2cc(NC(=S)NCCN3CCCCCC3)ccc2nc2n1CCCCC2	.	-4	13	-3	-1	4	1	-16
Cc1ccccc1-n1ncc2c(SCC(=O)N3c4ccccc4CC3C)ncnc21 (stereo unspecified)	i	-9	45	.	-6	-16	-3	-16
COc1ccc(N2CCN(CCNC(=O)Nc3cc(Cl)ccc3Cl)CC2)cc1	i	-9	6	3	-10	-5	-4	-12
O=C(O)CCN(CC(=O)c1ccc(Cl)cc1)S(=O)(=O)c1ccc([N+](=O)[O-])cc1	.	.	1	-24	5	0	.	-14
COc1ccc(C2CC(c3ccc(Cl)cc3)=NN2c2ccc(S(N)(=O)=O)cc2)cc1 (stereo unspecified)	.	.	.	-24	0	2	.	-8
O=C(O)CSC1=NC(=Nc2ccc(Cl)cc2)C2(CCCCC2)N1c1cccc(C(=O)O)c1	i	5	26	.	-1	5	-7	.
O=C1NC2(CCOc3ccccc32)C(=O)N1CC(=O)N(Cc1ccccc1)C1CCS(=O)(=O)C1 (stereo unspecified)	i	8	21	-9	3	4	7	1
COC(=O)C1CCN(C(=O)COC(=O)CNS(=O)(=O)c2ccc(SC)c([N+](=O)[O-])c2)CC1	.	.	-7	1	-2	-8	.	-4

Bioassay records from PubChem.

This is a random part of the collection. About 2.9% of those tested had a hit in this group.
